HNF4A DNA FP: change in binding of human HNF4A to DNA, primary screen, biochemical, fluorescence polarization, FITC-DNA; 1 h; activity change, % at 10 µM; hit rate 0.3% among 360,000; in the data active means activity change above about 30%, passing the limit was not always enough;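 further: controls were the assay level and a saturating level of protein; the project sought stronger binding though the title names inhibitors; some compounds called inactive have numbers as strong as hits; positive values seem to mean higher polarization but the record does not say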
Target sequence (P41235 whole entry, looked up): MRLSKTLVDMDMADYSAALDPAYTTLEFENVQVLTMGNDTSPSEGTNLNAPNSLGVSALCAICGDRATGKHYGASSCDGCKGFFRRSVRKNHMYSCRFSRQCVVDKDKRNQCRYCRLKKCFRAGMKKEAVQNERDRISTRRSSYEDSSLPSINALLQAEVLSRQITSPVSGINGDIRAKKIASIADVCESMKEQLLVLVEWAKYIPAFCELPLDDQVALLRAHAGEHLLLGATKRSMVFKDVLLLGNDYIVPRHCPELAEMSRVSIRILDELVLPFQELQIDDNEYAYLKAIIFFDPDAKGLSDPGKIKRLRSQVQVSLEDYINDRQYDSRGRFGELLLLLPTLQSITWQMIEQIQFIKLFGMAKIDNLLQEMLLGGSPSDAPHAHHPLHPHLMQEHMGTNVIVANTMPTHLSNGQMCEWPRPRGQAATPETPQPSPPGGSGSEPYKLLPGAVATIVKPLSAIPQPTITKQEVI
FGF22 binding: binders of human FGF22 protein, primary screen, FGF22 synaptogenesis inhibitor project, biophysical, thermal shift, single point | Fibroblast growth factor 22 (Homo sapiens), Q9HCT0 | recombinant FGF22 thermal shift, SYPRO orange fluorescence; percent of sucrose octasulfate shift, DMSO zero | calls only at 9.99 µM | hit rate 1.5% among 340,000;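 active means melting point raised past a set limit in the mean and every replicate; inconclusive means no clear call; three in four hits are not shown here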
Target sequence (Q9HCT0 whole entry, looked up): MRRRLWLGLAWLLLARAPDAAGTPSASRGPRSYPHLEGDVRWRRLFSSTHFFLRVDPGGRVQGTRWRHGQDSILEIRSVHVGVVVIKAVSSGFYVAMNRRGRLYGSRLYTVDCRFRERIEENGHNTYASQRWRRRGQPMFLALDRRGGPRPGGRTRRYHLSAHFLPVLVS
E coli growth: E. coli growth inhibition, primary screen, OD600. Escherichia coli growth, 23 h; active compounds read low. OD600 absorbance (test concentration not listed). hit rate 0.21% among 330,000. AID 1053175, 2014;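 active means OD600 absorbance below the run mean of sample wells minus 3.6 SD, in any replicate, cut at about 0.56 in these data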;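 further: stock transfer was 300 nL into about 60 µL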
UCH37 DUB inh: inhibitors of human UCH37 deubiquitinase, primary screen, biochemical, Ub-AMC cleavage, fluorescence. hit rate 0.33% among 330,000. purified proteasome/UCH37. inhibition, % (no concentration beside the values);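 active means mean of two replicates above 20%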;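 further: 0% = compound-free wells with enzyme and 100% = wells lacking proteasome; stock transfer was 100 nL into about 20 µL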
Target sequence (Q9Y5K5 whole entry, looked up): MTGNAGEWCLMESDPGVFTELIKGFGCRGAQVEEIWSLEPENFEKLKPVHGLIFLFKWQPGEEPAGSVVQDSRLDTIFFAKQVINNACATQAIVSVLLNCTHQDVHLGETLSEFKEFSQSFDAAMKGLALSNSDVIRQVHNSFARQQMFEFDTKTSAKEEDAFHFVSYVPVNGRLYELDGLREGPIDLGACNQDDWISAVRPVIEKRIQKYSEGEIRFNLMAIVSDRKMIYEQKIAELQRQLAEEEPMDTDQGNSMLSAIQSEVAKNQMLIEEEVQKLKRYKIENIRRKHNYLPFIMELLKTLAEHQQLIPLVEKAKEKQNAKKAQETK
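Material: Human UCH37 enzyme supplied as purified proteasome complex | Schedule: 30 min preincubation with enzyme, 25 min cleavage at room temperature | Detection: AMC fluorescence 355/460 nm | Measure: % inhibition of Ub-AMC cleavage fluorescence | Controls: Wells without proteasome as full block, compound-free enzyme plus substrate as uninhibited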
Vif TR-FRET: inhibitors of Vif binding to APOBEC3G peptide, primary screen, biochemical, TR-FRET, GST-Vif 1-94, biotin-A3G peptide, dose response retest (AID 1117319); Virion infectivity factor (Human immunodeficiency virus type 1 group M subtype B (isolate …; TR-FRET GST-Vif / biotin-A3G peptide binding; higher % means a stronger effect; test concentration not given here; strong numbers were not always called active; inhibition, %, or IC50 in µM where a hit was titrated; hit rate 0.57% among 260,000;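 active means above the screen mean plus three standard deviations and confirmed in dose response; inconclusive means results disagree or hit not tested in dose response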;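 further: Vif residues 1-94 fused to GST binding biotinylated APOBEC3G peptide 110-148; 0% = full assay without inhibitor and 100% = GST in place of GST-Vif; retest series ran down from 100 µM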
RanGTP-Imp inh: inhibitors of RanGTP-importin-beta interaction, primary screen, biochemical, FRET, CFP-Ran, YFP-importin-beta, homogeneous; hit rate 1.1% among 300,000; AID 2216, 2009; Ran GTPase (GTP-bound) - importin-beta complex; cell-free CFP-Ran/YFP-importin-beta FRET ratio; inhibition, % (concentration not given with the values);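 active means most replicates above 15%; inconclusive means exactly half above 15%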;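 further: 0% = DMSO wells and 100% = Ran loaded with GDP instead of GTP; wells of about 40 µL received 100 nL stock; the first replicate is given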
MLL AF4-AF9 inh: inhibitors of AF4 peptide binding to AF9, primary screen, biochemical, AlphaScreen, biotin-AF4 peptide, FLAG-AF9, single point. Protein AF-9 (Homo sapiens), P42568. inhibition, % at 10 µM. hit rate 0.47% among 350,000. AID 651704, 2012;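 active means every replicate reaching a set inhibition limit, whatever the replicate mean, cut at about 25% in these data; inconclusive means mean inhibition reaches that limit but some replicates miss it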;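 further: 0% = plate neutral control median and 100% = total signal loss; the record names both 10 and 1 µM as test concentration; the first replicate is given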
* = called active by the depositor; i = inactive; ? = inconclusive; nt = no result given.

SMILES | HNF4A DNA FP | FGF22 binding | E coli growth | UCH37 DUB inh | Vif TR-FRET | RanGTP-Imp inh | MLL AF4-AF9 inh
CCOC(=O)c1c(NC(=O)c2ccccc2Cl)sc2c1CCc1ccccc1-2 | -0.2 | i | 0.7 | -5.9 | -5% | 1.2 | -4.3
CCNC(=O)Nc1ccccc1C(=O)OC | -1.0 | i | 0.65 | -16 | -6% | 2.9 | -1.7
Cc1cc(C)nc(-n2nc(C)cc2NC(=O)CNCc2ccccc2)n1 | -1.6 | nt | nt | nt | -8% | -0.3 | nt
COc1ccccc1N1C(=O)C2CC=CC(C)C2C1=O (stereo not given) | -0.4 | nt | 0.69 | 1.6 | 2% | 0.8 | nt
CCCN(CC(=O)Nc1ccccc1C)C(=O)c1ccc2c(c1)S(=O)(=O)N=C1CCCCCN12 | 0.3 | i | 0.67 | 1.5 | -12% | nt | -1.3
O=C(NCc1ccc2c(c1)OCO2)c1ccc(=O)[nH]c1 | 3.0 | nt | 0.77 | 1.2 | 5% | 11 | nt
CCc1nnc(NC(=O)Nc2ccc(OC)cc2)s1 | -3.1 | nt | 0.75 | 2.6 | 6% | -2.2 | nt
CCOc1cc2[nH]c(=O)n(CCCN3CCN(c4ccc(OC)cc4)CC3)c(=O)c2cc1OCC | -0.9 | i | 0.71 | -3.8 | 11% | 1.6 | 4.8
Fc1ccc(/C=N/Nc2nnnn2-c2ccccc2)cc1 | 4.3 | nt | nt | nt | -4% | 1.7 | -1.7
Cc1cc2c(cc1S(=O)(=O)CCC(=O)N(C)Cc1ccccc1)OCC(=O)N2 | -0.6 | i | 0.69 | 3.8 | nt | ? | -4.3
COc1ccc(-c2nc(CN3CCC(c4ccccc4)CC3)c(C)o2)cc1OC | 5.1 | i | 0.66 | 1.9 | 1% | 7.9 | 9.8
COc1cc(C(=O)Nc2cc(C(F)(F)F)ccc2N2CCOCC2)ccc1OCC(=O)N1CCOCC1 | 1.4 | i | 0.69 | 2.0 | -4% | -2.1 | -2.8
COc1ccc(C)cc1NCC(=O)Nc1ccc(C(C)(C)C)cc1 | -0.6 | nt | 0.67 | 0.5 | 11% | 2.4 | nt
Cc1c(C2N3CC4(C)CN2CC(C)(C3)C4=O)c2ccccc2n1C (stereo not given) | -1.4 | nt | 0.74 | 0.1 | 18% | 12 | nt
O=C(O)c1ccc(NC(=O)c2cccc(NC(=O)c3cccs3)c2)cc1 | -2.4 | nt | 0.69 | 4.5 | 4% | -2.1 | nt
S=C(S)N1CCCC1 | -3.8 | i | nt | 2.6 | nt | nt | -5.0
CC(=O)c1c(Cl)nc2ccc(Br)cc2c1-c1ccccc1 | 0.7 | i | 0.72 | 2.3 | nt | 2.7 | 0.9
CCN(C(=O)c1ccnc(C(C)(C)C)c1)c1ccccc1 | 3.8 | i | 0.66 | 4.5 | -8% | 0.7 | 1.0
Cc1cc(-c2ccc3c(c2)COc2c4ccccc4nn2-3)on1 | -1.0 | nt | 0.69 | -0.1 | nt | 2.6 | nt
CC(=O)c1cccc(N(CC(=O)NC2CCCCC2)C(=O)CCC(=O)Nc2nc(C)cs2)c1 | 0.8 | i | 0.66 | 0.9 | nt | 1.1 | -1.7
CCCCOC(=O)n1c(=S)oc2cc(Cl)ccc21 | -0.7 | nt | 0.62 | 1.6 | -2% | -1.1 | nt
COc1ccc(-c2cc(C(=O)OCC(=O)NC3CC3)c3ccccc3n2)cc1OC | -2.4 | i | 0.65 | -35 | -7% | nt | -1.3
COc1ccc2ccc(OCC(=O)N3c4ccccc4NC(=O)CC3C)cc2c1 (stereo not given) | -1.1 | i | 0.72 | 4.3 | -5% | nt | 0.4
CCc1ccc(S(=O)(=O)N/N=C\c2ccc3c(c2)OCO3)cc1 | 0.9 | i | nt | nt | nt | 2.5 | -0.4
O=C(c1cccs1)N1CCN(Cc2cccnc2)CC1 | 0.4 | nt | 0.66 | 2.2 | nt | 5.5 | nt
C/C(=N\NC(=O)C(N)=O)c1cccc(C(F)(F)F)c1 | 3.3 | i | nt | nt | -3% | 2.5 | 0.2
C/C(=N\OCC(=O)Nc1ccccc1C(=O)O)c1cccs1 | -1.0 | i | nt | nt | 2% | 2.3 | -4.7
COc1ccc(S(=O)(=O)N2CC=C(C(=O)Nc3ccc(NC(C)=O)cc3)CC2)cc1 | -3.9 | i | nt | nt | 17% | -0.3 | -2.1
CCCc1nc2ccccc2n1C(=S)SC | -1.3 | i | 0.68 | -0.1 | -5% | ? | -1.3
COC(=O)C(NC(=O)C(C)NC(=O)OCc1ccccc1)C(C)C (stereo not given) | -0.5 | i | 0.67 | 1.3 | 5% | 0.6 | -3.8
NC(=O)c1ccccc1NC(=O)CCCc1ccccc1 | -2.0 | i | 0.67 | 0.3 | nt | -2.6 | -6.4
CN(CCO)CCOCCOc1cccc2ccccc12 | -1.9 | i | 0.69 | 4.9 | -2% | 4.3 | 3.3
C=CCN(Cc1ccco1)S(=O)(=O)c1ccc(Cl)cc1 | 0.3 | i | 0.66 | 1.5 | nt | ? | -0.1
Cc1nn(-c2ccccc2)c(C)c1C(=O)OCC(=O)N(C)C1CCS(=O)(=O)C1 (stereo not given) | 3.8 | i | 0.73 | 0.7 | nt | -4.2 | 0.4
O=c1o[nH]c(-c2ccccc2)c1N=Nc1c(F)cccc1Cl | 3.6 | i | 0.66 | 6.7 | -1% | 2.0 | -0.3
O=C(NC(Cc1nn[nH]n1)C(=O)OCc1ccccc1)OCc1ccccc1 (stereo not given) | 2.7 | i | nt | nt | nt | nt | -1.5
COc1cc(C2C(C#N)=C(C)NC3=C2C(=O)CC(C)(C)C3)ccc1OCCO (stereo not given) | 1.5 | nt | 0.71 | -2.3 | -9% | -1.3 | nt
CCOc1c(C)cnc2c1c(=O)n(Cc1cccc(Cl)c1)c(=O)n2C | 4.4 | i | 0.67 | 3.4 | nt | 0.0 | -5.6
CCOc1ncccc1C(=O)OCC(=O)Nc1c(C)cccc1C | -2.3 | nt | 0.73 | -1.3 | 7% | -1.0 | nt
COC(=O)c1oc2ccccc2c1-n1cccc1 | -11 | nt | 0.67 | 5.8 | 1% | -0.1 | nt
COc1ccc(N(C(=O)CNC(=O)c2ccco2)C(C(=O)NC2CCCC2)c2ccncc2)cc1 (stereo not given) | -1.9 | i | 0.66 | 0.2 | -7% | 4.6 | 0.8
CC(=O)c1ccc(NC(=S)Nc2cccc3ccccc23)cc1 | 0.3 | i | 0.72 | 2.5 | 4% | 1.1 | 0.6
NC(=O)COC(=O)c1cccc(S(=O)(=O)N2CCN(c3ccc(F)cc3)CC2)c1 | -2.4 | i | 0.68 | 1.7 | 2% | -1.0 | -0.8
Cc1cccc(-n2ncc3c2CCCC3NC(=O)Cc2c(C)noc2C)c1C (stereo not given) | 2.5 | nt | 0.71 | 2.9 | nt | 5.2 | -1.0
CN(CC(=O)Nc1ccc(S(N)(=O)=O)cc1)c1ccccc1 | -3.7 | nt | 0.67 | 0.2 | 13% | 5.6 | nt
Cn1c2c(c(=O)[nH]c1=O)C(c1cccc(O)c1)C1=C(N2)c2ccccc2C1=O (stereo not given) | -0.5 | i | 0.67 | 10 | 4% | nt | 4.6
Cc1ccc(-n2c3c(c(O)c(-c4ccccc4)c2=O)C(=O)CC(C)(C)C3)cc1 | -0.2 | nt | 0.68 | 2.3 | -2% | -3.0 | nt
O=C(Nc1cccc2nsnc12)c1ccc(-c2ccc(Br)cc2)o1 | 19 | nt | 0.72 | -17 | 21% | -34 | nt
Cc1ccc(NC(=O)CN(C)C(=O)C2CSC3(C)CCC(=O)N23)cc1 (stereo not given) | -1.5 | i | nt | nt | 7% | nt | -0.3
O=C(CN1C(=O)NC2(CCc3ccccc32)C1=O)c1ccc(F)c(F)c1 (stereo not given) | 2.4 | i | 0.61 | 0.6 | -1% | 1.8 | 0.7
CC(NC(=O)COC(=O)c1cc(NS(=O)(=O)c2ccc(Cl)c([N+](=O)[O-])c2)ccc1O)C1CC2CCC1C2 (stereo not given) | 4.0 | nt | 0.68 | 6.6 | 31% | -3.9 | nt
CCCCNC(=O)CS(=O)Cc1nc(-c2cccs2)oc1C (stereo not given) | 0.3 | i | 0.79 | 1.1 | 23% | -0.2 | -5.5
Cc1csc(NC(=O)c2ccncc2)n1 | 1.8 | i | 0.71 | 3.6 | nt | -3.3 | -0.8
COc1ccc(C[C@@H]2CN3C(=NC[C@@H]3C)N2C[C@H](C)NC(=O)c2ccc(C)c(Br)c2)cc1 | -3.3 | i | nt | 5.3 | nt | 1.7 | 6.6
Fc1cc(Br)ccc1COc1ccc(-c2nnco2)cc1 | -1.7 | i | 0.76 | 0.7 | nt | 1.7 | -0.9
CSc1nnc(-c2ccc(S(=O)(=O)N3CCOCC3)cc2)n1CC1CCCO1 (stereo not given) | -0.5 | nt | 0.64 | 2.0 | 1% | 1.5 | nt
NC(=O)Cc1ccc(C(=O)c2ccc(Cl)cc2Cl)s1 | 2.0 | i | 0.68 | 3.2 | 1% | -3.1 | 1.0
Cc1ccccc1NC(=O)c1cnn(-c2ccccc2)c1C | 0.1 | i | 0.62 | 1.1 | -7% | 4.6 | 0.4
O=C(NCCOc1ccccc1F)C1CC(=O)N(Cc2ccccc2)C1 (stereo not given) | -1.6 | i | 0.61 | -0.6 | -7% | nt | 0.1
COc1ccc2nc(C)cc(SCC(NC(C)=O)C(=O)OC(C)C)c2c1 (stereo not given) | -3.8 | i | 0.65 | -33 | -6% | 1.4 | 0.4

3 compounds drawn at random from the list so far:
SMILES | HNF4A DNA FP | FGF22 binding | E coli growth | UCH37 DUB inh | Vif TR-FRET | RanGTP-Imp inh | MLL AF4-AF9 inh
CCc1nnc(NC(=O)Nc2ccc(OC)cc2)s1 | -3.1 | nt | 0.75 | 2.6 | 6% | -2.2 | nt
CC(=O)c1c(Cl)nc2ccc(Br)cc2c1-c1ccccc1 | 0.7 | i | 0.72 | 2.3 | nt | 2.7 | 0.9
CCCCNC(=O)CS(=O)Cc1nc(-c2cccs2)oc1C (stereo not given) | 0.3 | i | 0.79 | 1.1 | 23% | -0.2 | -5.5

Additional compounds.
SMILES | HNF4A DNA FP | FGF22 binding | E coli growth | UCH37 DUB inh | Vif TR-FRET | RanGTP-Imp inh | MLL AF4-AF9 inh
FC(F)Sc1ccc(NC(=S)NC2CCCCC2)cc1 | -2.5 | nt | 0.64 | 4.0 | -1% | -2.6 | nt
O=C(COc1ccccc1)N1CCN(C(=O)c2cccs2)CC1 | 0.5 | nt | 0.74 | 1.4 | 18% | 0.6 | nt
COc1ccc(C(=O)CN2C3=NCCCN3c3ccccc32)cc1OC | 3.9 | nt | 0.71 | 5.0 | -9% | 3.7 | nt
COC(=O)c1ccc(C(=O)OC)c(NC(=O)CS(=O)(=O)Cc2ccccc2)c1 | 0.8 | nt | 0.72 | -9.2 | -2% | 0.6 | nt
COc1cc(/C=C(\C#N)c2nc3ccccc3[nH]2)cc(OC)c1O | 104 | i | 0.72 | 8.4 | 10% | -8.4 | 1.6
O=C(CC1(C(=O)O)CCCC1)N1CCOCC1 | 2.0 | nt | 0.71 | -1.7 | 3% | 3.9 | nt
CC(Cc1ccccc1)NC(=O)CN1C(=O)c2ccccc2S1(=O)=O (stereo not given) | -0.4 | i | 0.68 | 6.0 | 12% | 1.9 | -0.2

Assay outcomes deposited in PubChem BioAssay by several laboratories.

This is a subset (hit frequency here may not be typical).
